# Vaccinia stage = blocks a specific stage of Vaccinia orthopoxvirus infection, primary screen, cell-based, single point. Vaccinia-infected cells, mCherry/Venus stage reporter fluorescence; hits give low values; some inactives read as strong as hits. activity change (mCherry), % (concentration not given with the values). hit rate 0.01% among 89,000;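 active means mCherry past -33% and 40 or more points under the early reporter, replicates agreeing; inconclusive means past -33% without that gap or agreement; tested in A549 cells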;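 further: scaled between vehicle wells and reference inhibitor wells; 23 nL library stock went into each well; one replicate is shown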
# Vaccinia stage Venus = also measured in Vaccinia stage; calls as there; activity change (Venus), %; measured here: Venus reporter, other viral stage;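 negative = less Venus signal; first of two replicates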
# Starred values were filed as active, the others as inactive; ? = inconclusive; · = not tested or not shown; & = joins results of further samples.
# Results follow in this order: Vaccinia stage | Vaccinia stage Venus
1. C[C@H]1CN([C@@H](C)CO)C(=O)Cc2cc(NC(=O)CCN3CCOCC3)ccc2O[C@@H]1CN(C)Cc1ccc(C(=O)Nc2ccccc2N)cc1
    0 | -5
2. Cc1ccc(S(=O)(=O)N[C@@H]2CCCN(Cc3ccc(OCCO)cc3)C2)cc1
    -26 | -24
3. COc1ccccc1NC(=O)N1CCCCN2[C@H](CO)[C@@H](c3ccc(C#Cc4ccccc4)cc3)[C@@H]2C1
    -11 | -11
4. Cn1cnc(S(=O)(=O)N[C@@H]2CC[C@H](CC(=O)Nc3ccc(-c4ccccc4)cc3)O[C@H]2CO)c1
    8 | 6
5. CC1C=NC(S(=O)(=O)N2CC[C@@H]3[C@@H](CO)N(C)c4ccc(-c5ccccc5F)cc4[C@@H]32)=N1 (some centres undefined)
    -27 | -20
6. O=C(Cc1ccccn1)NCC[C@@H]1CC[C@H](NC(=O)Nc2ccc(F)cc2)[C@@H](CO)O1
    5 | -1
7. C[C@@H]1CCCCO[C@H](CN(C)Cc2ccc(Cl)c(Cl)c2)[C@@H](C)CN([C@H](C)CO)C(=O)c2cc(NS(=O)(=O)c3cn(C)cn3)ccc2O1
    -11 | -6
8. COc1ccc(S(=O)(=O)N(C)C[C@H]2OCCCC[C@@H](C)Oc3ccc(NC(=O)C4CCCCC4)cc3C(=O)N([C@H](C)CO)C[C@@H]2C)cc1
    8 | 9
9. C[C@@H]1CN([C@H](C)CO)C(=O)CCCn2cc(nn2)CO[C@H]1CN(C)C(=O)Oc1ccc2ccccc2c1
    8&8 | -4&8
10. COc1ccc2c3c([nH]c2c1)[C@H](CO)N(S(C)(=O)=O)CC31CCN(C(=O)c2cccnc2)CC1
    6 | 8
11. C[C@H]1CN([C@@H](C)CO)C(=O)Cc2cc(NS(=O)(=O)c3ccc(F)cc3)ccc2O[C@@H]1CN(C)C(=O)Nc1ccc(F)cc1
    17 | 7
12. COc1ccc(CNC(=O)C[C@H]2CC[C@@H](NC(=O)c3ccc4c(c3)OCO4)[C@H](CO)O2)cc1
    0 | -6
13. CN(C)CCCNC(=O)[C@H]1[C@H](CO)[C@H]2Cn3c(ccc(-c4ccccc4)c3=O)[C@@H]1N2C(=O)CC1CC1
    8 | 6
14. CN(C)CC(=O)N[C@H]1CC[C@H](CC(=O)NCc2ccc(Cl)cc2)O[C@@H]1CO
    12 | 14
15. CN1[C@H](CO)[C@@H]2c3ccccc3N(C(=O)Nc3ccccc3F)C[C@@H]21
    5 | -1
16. CO[C@H]1CN(C)C(=O)c2cc(NC(=O)C3CCCC3)ccc2OC[C@H](C)N(CCC(F)(F)F)C[C@H]1C
    -18 | -12
17. O=C(C[C@H]1C[C@@H]2c3cc(NC(=O)NC4CCCC4)ccc3O[C@@H]2[C@H](CO)O1)NCc1ccccc1F
    16 | 5
18. C[C@@H]1CN([C@H](C)CO)C(=O)c2cccc(NC(=O)Nc3ccccc3)c2O[C@@H]1CN(C)S(C)(=O)=O
    6 | 4
19. Cc1ccccc1-c1cnc2c(c1)C(=O)N([C@H](C)CO)C[C@H](C)[C@H](CN(C)Cc1cccnc1)O2
    4 | 3
20. CCCN1[C@@H]2c3ccc(-c4ccncc4)c(=O)n3C[C@H]1[C@H](CO)[C@H]2C(=O)N1CCCCC1
    5 | 6
21. COc1ccc2c3c([nH]c2c1)[C@H](CO)N(C(=O)Nc1ccc(F)cc1)CC31CCN(C(=O)Cc2ccncc2)CC1
    19 | 13
22. COc1ccc(NC(=O)N(C)C[C@@H]2OCCCC[C@@H](C)Oc3ccc(NC(=O)NC4CCCCC4)cc3C(=O)N([C@@H](C)CO)C[C@H]2C)cc1
    0 | -1
23. C[C@H]1CN([C@@H](C)CO)C(=O)c2cc(NC(=O)CCCCCC(=O)Nc3ccccc3N)ccc2O[C@H]1CN(C)CC1CCCCC1
    -23 | -16
24. COc1ccccc1-c1ccc2n(c1=O)C[C@@H]1[C@@H](CO)[C@H](C(=O)N[C@@H](C)c3ccccc3)[C@H]2N1C
    3 | 1
25. C[C@@H]1CN([C@H](C)CO)S(=O)(=O)c2ccc(C#CC3CC3)cc2O[C@@H]1CN(C)Cc1ccccc1F
    ? | ·
26. COCC#Cc1cnc2c(c1)C(=O)N([C@H](C)CO)C[C@@H](C)[C@@H](CN(C)C(=O)Nc1ccc(OC)cc1)O2
    20 | 2
27. COCCNC(=O)C[C@@H]1CC[C@H]2[C@@H](COc3ccc(NC(=O)Nc4ccccc4)cc3C(=O)N2C)O1
    -2 | -7
28. O=C(Nc1ccccc1)N1CCCCN2[C@H](CO)[C@@H](c3ccc(C#Cc4cccnc4)cc3)[C@H]2C1
    -28 | -20
29. Cc1noc(C)c1NC(=O)Nc1ccc2c(c1)CC(=O)N([C@@H](C)CO)C[C@@H](C)[C@@H](CN(C)Cc1ccc3c(c1)OCO3)O2
    10 | 3
30. C[C@@H]1CCCCO[C@H](CN(C)C(=O)C2CCCCC2)[C@H](C)CN([C@@H](C)CO)C(=O)c2cc(NC(=O)Nc3cccc4ccccc34)ccc2O1
    5 | 6
31. COc1ccc2c3c(n(C)c2c1)[C@H](CO)N(C(C)=O)CC31CCN(S(=O)(=O)c2ccccc2)CC1
    -2 | -8
32. CCCC#Cc1ccc([C@H]2[C@H](CO)N3CCCCN(C(=O)Cc4ccccn4)C[C@@H]23)cc1
    -12 | -6
33. COc1ccc(-c2ccc(C3[C@H]4CNC[C@@H]3N4C(=O)Nc3ccc(F)cc3)cc2)cc1 (some centres undefined)
    -12 | 3
34. CCC(=O)Nc1ccc2c(c1)OC[C@H](C)N(C(=O)Cc1ccccn1)C[C@H](C)[C@H](OC)CN(C)C2=O
    2 | 6
35. C[C@H](CO)N1C[C@H](C)[C@@H](CN(C)Cc2ccc3c(c2)OCO3)OCCCC[C@H](C)Oc2ccc(NC(=O)c3ccncc3)cc2C1=O
    9 | 4
36. C[C@H]1CCCCO[C@@H](CN(C)Cc2ccc(C(F)(F)F)cc2)[C@@H](C)CN([C@@H](C)CO)C(=O)c2cc(NS(=O)(=O)c3cccs3)ccc2O1
    ? | ·
37. COc1ccc(S(=O)(=O)N(C)C[C@@H]2Oc3c(NC(=O)c4cnccn4)cccc3C(=O)N([C@H](C)CO)C[C@H]2C)cc1
    -9 | 0
38. COc1ccc(NC(=O)N(C)C[C@H]2Oc3ccc(NC(=O)CCN4CCOCC4)cc3C(=O)N([C@@H](C)CO)C[C@@H]2C)cc1
    8 | 3
39. O=C(NCC[C@@H]1CC[C@H](NC(=O)C2CCCC2)[C@@H](CO)O1)c1ccc(F)cc1
    -5 | 0
40. O=C1O[C@@H](c2ccccc2)[C@@H](c2ccccc2)N2[C@@H](c3ccc(O)cc3)[C@]3(C(=O)Nc4ccc(C#CC5(O)CCCCCC5)cc43)[C@@H](C(=O)N3CCN(c4ncccn4)CC3)[C@H]12
    6 | -4
41. Cc1noc(C)c1NC(=O)NCC[C@@H]1CC[C@@H](NC(=O)Nc2cccc(F)c2)[C@H](CO)O1
    -3 | -3
42. CCNC(=O)C[C@@H]1CC[C@@H](NC(=O)C2CC2)[C@@H](CO)O1
    9 | 17
43. CN1[C@@H]2Cn3c(ccc(C4=CCCC4)c3=O)[C@H]1[C@@H](C(=O)NC1Cc3ccccc3C1)[C@@H]2CO
    -5 | 0
44. C[C@@H]1CN([C@H](C)CO)S(=O)(=O)c2ccc(C#Cc3ccccc3F)cc2O[C@@H]1CN(C)C(=O)c1ccc2c(c1)OCO2
    ? | ·
45. COc1cccc(S(=O)(=O)Nc2ccc3c(c2)[C@@H]2C[C@@H](CC(=O)NCCc4ccccc4)O[C@@H](CO)[C@@H]2O3)c1
    -9 | -11
46. O=C(Nc1ccc(F)cc1)N1CC(=O)N2[C@H](CO)[C@H](c3ccc(C#Cc4ccc(F)cc4)cc3)[C@H]2C1
    ? | ·
47. CN(C)CC#Cc1ccc([C@@H]2[C@@H](CO)N3CCCCN(CC4CC4)C[C@@H]23)cc1
    -4 | -5
48. CCCNC(=O)N1CC2(CN(Cc3ccc(F)cc3)C2)c2c([nH]c3cc(OC)ccc23)[C@H]1CO
    -23 | -22
49. C[C@H](CO)N1C[C@H](C)[C@@H](CN(C)Cc2ccc(C(=O)O)cc2)Oc2c(NC(=O)Nc3ccccc3)cccc2C1=O
    23 | 15
50. C[C@@H]1CN([C@@H](C)CO)C(=O)c2cccc(NC(=O)CCCCCC(=O)Nc3ccccc3N)c2O[C@H]1CN(C)S(=O)(=O)c1ccc(F)cc1
    4 | -5
51. CO[C@@H]1CN(C)C(=O)c2cc(NS(=O)(=O)c3ccc(C)cc3)ccc2OC[C@@H](C)N(C(=O)NC(C)C)C[C@@H]1C
    1 | -4
52. CO[C@@H]1CC[C@H]2CCOc3c(C#N)cccc3C(=O)N(C)C[C@@H](OC)[C@H](C)C(=O)N(C)C[C@@H]1O2
    9 | 3
53. Cc1ccc(S(=O)(=O)Nc2ccc3c(c2)C(=O)N([C@@H](C)CO)C[C@H](C)[C@@H](CN(C)C(=O)Nc2cccc4ccccc24)OCCCC[C@@H](C)O3)cc1
    -3 | 1
54. CC(C)NC(=O)Nc1ccc2c(c1)C(=O)N([C@H](C)CO)C[C@H](C)[C@H](CN(C)C(=O)Nc1ccc(F)cc1)O2
    -6 | -8
55. Cc1ccc(-c2cnc3c(c2)C(=O)N([C@@H](C)CO)C[C@H](C)[C@@H](CN(C)C(=O)Cc2ccncc2)O3)cc1
    ? | ·
56. C[C@@H]1CN([C@H](C)CO)C(=O)c2cccc(NC(=O)c3cnccn3)c2O[C@H]1CN(C)CC1CC1
    2 | 3
57. CN(C)CC(=O)N[C@@H]1CC[C@@H](CCNS(=O)(=O)c2ccccc2)O[C@H]1CO
    2 | 1
58. CC(C)OC(=O)N(C)C[C@H]1OCc2cnnn2CCCC(=O)N([C@@H](C)CO)C[C@H]1C
    23 | 4
59. COCCNC(=O)C[C@@H]1C[C@H]2c3cc(NC(=O)Nc4ccc(OC)cc4)ccc3O[C@H]2[C@H](CO)O1
    8 | 4
60. COc1cccc(-c2ccc3c(c2)[C@@H]2[C@@H](CCN2S(=O)(=O)c2cn(C)cn2)[C@@H](CO)N3)c1
    -28 | -27

# Further compounds follow.
# Results follow in this order: Vaccinia stage | Vaccinia stage Venus
61. COCC(=O)Nc1ccc2c(c1)OC[C@H](C)N(C(=O)c1cccnc1)C[C@@H](C)[C@@H](OC)CN(C)C2=O
    2 | 5
62. C[C@H](CO)N1C[C@H](C)[C@H](CN(C)C(=O)c2ccccn2)Oc2ncc(C#Cc3ccccc3)cc2C1=O
    17 | 13
63. O=C(NCC1CC1)[C@@H]1[C@@H](CO)[C@@H]2Cn3c(ccc(-c4ccncc4)c3=O)[C@@H]2N1Cc1cocn1
    10 | 12
64. C[C@H](CO)N1C[C@H](C)[C@@H](CN(C)CC2CCCCC2)Oc2c(NC(=O)CCCCCC(=O)Nc3ccccc3N)cccc2C1=O
    ? | ·
65. C[C@H]1CN([C@@H](C)CO)C(=O)c2cc(NC(=O)Nc3ccc(F)cc3)ccc2O[C@H]1CN(C)Cc1ccc(C(=O)Nc2ccccc2N)cc1
    1 | 6
66. C[C@H]1CN([C@@H](C)CO)C(=O)c2cc(/C=C/c3ccccc3)cnc2O[C@@H]1CN(C)C(=O)C1CCOCC1
    19 | 13
67. COC(=O)[C@H]1[C@H](CO)[C@H]2Cn3c(ccc(-c4ccc(F)cc4)c3=O)[C@@H]1N2Cc1ccccc1
    -8 | -5
68. O=C(Cc1ccncc1)NCC[C@H]1CC[C@H](NC(=O)C2CCC2)[C@H](CO)O1
    9 | 1
69. O=C(Cc1ccncc1)NCC[C@H]1CC[C@H](NC(=O)C2CC2)[C@@H](CO)O1
    11 | 9
70. C[C@@H]1CN([C@@H](C)CO)C(=O)Cc2cc(NC(=O)CCC(F)(F)F)ccc2O[C@@H]1CN(C)C(=O)Nc1cccc2ccccc12
    25 | 15
71. C/C=C/c1ccc([C@H]2[C@@H](CO)N(C(=O)c3cccnc3)[C@H]2C#N)cc1
    6 | 2
72. CC(=O)Nc1ccc2c(c1)C(=O)N(C)[C@H]1CC[C@@H](CC(=O)NCC3CC3)O[C@H]1CO2
    8 | 11
73. C[C@@H]1CN([C@@H](C)CO)C(=O)c2cc(NC(=O)Nc3cccc4ccccc34)ccc2O[C@@H](C)CCCCO[C@H]1CN(C)C(=O)C1CCCCC1
    6 | 17
74. COCC(=O)N1C[C@@H]2[C@H](c3ccccc31)[C@H](CO)N2C(=O)c1ccncc1
    5 | 10
75. C[C@H]1CN([C@@H](C)CO)C(=O)c2cc(NC(=O)CCN3CCOCC3)ccc2O[C@H]1CN(C)S(=O)(=O)c1cccs1
    13 | -1
76. C[C@@H]1CN([C@H](C)CO)C(=O)c2cc(NC(=O)CCC(F)(F)F)ccc2O[C@@H]1CN(C)S(C)(=O)=O
    -3 | -1
77. Cc1cccc(-c2ccc([C@@H]3[C@H]4CN(C(=O)c5cccnc5)CC(=O)N4[C@H]3CO)cc2)c1
    -6 | -3
78. O=C(C1CCC1)N1CC2(C1)[C@@H](c1ccccc1)[C@H](CO)N2C(=O)c1cccnc1
    3 | 12

# These rows are one share of the data; the hit share may differ from the screen's.
